# KCNQ2 pot: enhances the rat KCNQ2 potassium channel; B-score at 10 µM; CHO-K1 KCNQ2, FluxOR thallium flux fluorescence; hits give high values; O88943; AID 2239; 0.54% of 310,000 active;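 active = fluorescence ratio B-score at least 3 SD of library B-scores, with initial fluorescence B-score within 3 SD, cut at about 5.3 in these data; same plate scores as AID 2156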;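 note: B-score of peak minus minimum over baseline fluorescence ratio after K+ and Tl+ stimulus; positive B-score means potentiation of KCNQ2 with more thallium influx and brighter signal; only the inactives scoring about 0 or higher are listed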
# Target sequence (O88943 whole entry, looked up): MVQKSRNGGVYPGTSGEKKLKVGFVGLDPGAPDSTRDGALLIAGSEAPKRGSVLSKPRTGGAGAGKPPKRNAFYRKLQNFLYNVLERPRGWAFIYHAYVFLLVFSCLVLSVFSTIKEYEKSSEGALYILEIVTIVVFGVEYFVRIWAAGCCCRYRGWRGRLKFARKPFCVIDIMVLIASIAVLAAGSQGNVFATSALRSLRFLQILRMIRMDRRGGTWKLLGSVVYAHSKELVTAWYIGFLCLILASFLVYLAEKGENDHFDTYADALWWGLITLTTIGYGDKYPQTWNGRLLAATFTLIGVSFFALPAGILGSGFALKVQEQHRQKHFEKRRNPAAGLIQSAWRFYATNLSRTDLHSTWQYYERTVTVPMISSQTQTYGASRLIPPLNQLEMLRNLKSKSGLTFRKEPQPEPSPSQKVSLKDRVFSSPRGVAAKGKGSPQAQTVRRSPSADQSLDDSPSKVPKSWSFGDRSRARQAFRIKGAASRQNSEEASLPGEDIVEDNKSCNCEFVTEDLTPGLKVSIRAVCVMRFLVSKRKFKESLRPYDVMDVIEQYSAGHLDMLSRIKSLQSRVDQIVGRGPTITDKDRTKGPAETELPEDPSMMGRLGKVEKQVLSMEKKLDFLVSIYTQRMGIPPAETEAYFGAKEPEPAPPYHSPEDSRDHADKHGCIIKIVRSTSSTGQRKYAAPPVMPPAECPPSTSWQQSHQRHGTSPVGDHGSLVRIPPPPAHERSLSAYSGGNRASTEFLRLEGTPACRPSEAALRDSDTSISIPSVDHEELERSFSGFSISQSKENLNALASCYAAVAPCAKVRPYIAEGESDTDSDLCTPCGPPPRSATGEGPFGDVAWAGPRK
# KCNQ2 pot baseline: further read-out of KCNQ2 pot, marked with its call; B-score; compound at 10 µM; measured here: initial fluorescence intensity artifact check;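 brightness before thallium and not channel activity; 0 = typical well and far values either way flag optical interference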
# Active calls of the source: *. An excerpt. The share of hits here may be higher or lower than overall.
# Under each structure – KCNQ2 pot, KCNQ2 pot baseline
- Cc1ccc2[nH]c(=S)cc(C)c2c1
 : 1.9, -1.1
- C/C(=C\c1ccccc1)C(=O)N1CCN(Cc2ccc3c(c2)OCO3)CC1
 : 0.12, -0.99
- CCOC(=O)C1CCN(Cc2c(O)ccc3ccccc23)CC1
 : 0.29, -0.62
- CN(C)S(=O)(=O)N1CCN(c2cccc(Cl)c2)CC1
 : 0.76, -1.4
- CC(=O)N1CCN(C(=O)/C(C#N)=C/c2ccc3c(c2)OCO3)CC1
 : 0.48, 1.3
- CN(c1ccc(C(=O)NC2CCCCC2)cc1)S(=O)(=O)c1ccccc1
 : 2.6, -0.74
- Cc1cc(F)ccc1S(=O)(=O)Nc1ncnc2sc3c(c12)CCC3
 : 0.03, -1.9
- CCCOc1ccc(N2C(=O)CC(N(Cc3ccco3)C(=O)CC)C2=O)cc1 (stereo not given)
 : 0.33, -0.19
- CC(C)(C)C1CCc2c(C(=O)N/N=C/c3cccs3)csc2C1 (stereo not given)
 : 0.24, 0.64
- O=C(Nc1ccccc1Cl)c1cccs1
 : 0.01, 0.97
- Cc1ccc(S(=O)(=O)N2CCCC2C(=O)Nc2cc(C)on2)cc1 (stereo not given)
 : 0.4, -1.1
- CC(=O)Nc1ccc(/C(C)=N/NC(=O)c2ccc(COc3ccccc3Cl)o2)cc1
 : 1.4, 0.92
- Cc1cc(SCc2ccc(F)cc2)nc(=O)[nH]1
 : 1.1, 0.39
- Cc1ccc(NC(=O)NCc2ccccn2)cc1Cl
 : 2.6, 0
- COc1ccc(NC(=O)C(=O)NNC(=O)COc2ccc(OC)cc2)cc1
 : 1.8, 0.12
- COc1ccc(NC(=O)OC(CN2CCCCC2)C(F)(F)F)cc1 (stereo not given)
 : 0.04, -0.46
- O=C(c1cc2cc(Br)cc(Br)c2oc1=O)N1CCCC1
 : 1.9, -2.6
- NC(=O)c1c(/N=C/c2cccnc2)sc2c1CCCC2
 : 1.3, -0.49
- COc1ccc(Oc2nnc(C)c3ccccc23)cc1
 : 0.04, -0.26
- Cc1ccc(C(=O)O/N=C(\N)c2ccc(Br)cc2)cc1C
 : 0.55, 0.66
- NC(=O)c1ccccc1NC(=O)CN1CCN(Cc2ccc(Cl)cc2Cl)CC1
 : 0.47, -1
- CCN(CC)C(=O)c1ccc(C(=O)c2ccccc2)cc1
 : 2.3, -1.7
- COc1ccc2cc(-c3ccccc3)c(=O)oc2c1
 : 2, 0.77
- O=C(Nc1nnc(S(=O)(=O)Nc2ccccc2)s1)C1CCCCC1
 : 1.4, -1.2
- CCCCN1C(=O)CC(Sc2ccccc2C(=O)O)C1=O (stereo not given)
 : 1.1, 0.27
- CCCn1c(SCC(=O)NC(C)(C)C)nnc1-c1ccco1
 : 0.67, 2.4
- C=CCNC(=O)C(=O)NCCOc1ccccc1Cl
 : 0.48, 2.5
- CC(NC(=O)NCCCC(=O)O)(C(F)(F)F)C(F)(F)F
 : 0.72, 1.3
- Cc1oc(C(C)(C)C)cc1C(=O)NCc1ccc2c(c1)OCO2
 : 0.02, 1.2
- CC(=O)c1c(C)oc2c1cc(NS(=O)(=O)c1ccc(C(=O)O)cc1)c1ccccc12
 : 0.32, -0.09
- COc1cccc(C2C(C#N)=C(N)Oc3c2oc(CO)cc3=O)c1OC (stereo not given)
 : 0.71, -0.12
- Cc1ccc(CN(C(=O)c2csnn2)C(C(=O)NC2CCCC2)c2cccnc2)cc1 (stereo not given)
 : 0.8, 0.16
- COc1ccc(CN(C(=S)Nc2ccccc2)C2CC(=O)N(c3ccccc3)C2=O)cc1 (stereo not given)
 : 0.03, -0.15
- N#CCCn1c(C(C#N)(CCC#N)CCC#N)nc2ccccc21
 : 1.2, -0.02
- CC(=O)Nc1ccc(NC(=O)C(C)OC(=O)c2cccc(S(=O)(=O)N3CCCCC3)c2)cc1 (stereo not given)
 : 0.49, -1.6
- COC(=O)c1ccccc1-c1ccc(/C=N/Nc2nc(N3CCCC3)nc(N3CCCC3)n2)o1
 : 0.39, -0.54
- O=C(Nc1cc2c(cc1Br)OCCO2)c1cccnc1
 : 0.75, -1.1
- Cc1c(C(=O)N2CCOCC2)c(S(=O)(=O)Nc2ccccc2F)c(C)n1C
 : 1.4, 1.2
- Cc1sc(NC(=O)CSc2nc(N)cc(N)n2)c(C#N)c1C
 : 0.16, -0.1
- Cc1cc(C)n(CCN(C)c2nc3nonc3nc2N2CCCCC2)n1
 : 0.6, 0.01

# 6 entries already listed, ordered by formula weight, falling.
# Under each structure – KCNQ2 pot, KCNQ2 pot baseline
- CC(=O)Nc1ccc(NC(=O)C(C)OC(=O)c2cccc(S(=O)(=O)N3CCCCC3)c2)cc1 (stereo not given)
 : 0.49, -1.6
- Cc1ccc(CN(C(=O)c2csnn2)C(C(=O)NC2CCCC2)c2cccnc2)cc1 (stereo not given)
 : 0.8, 0.16
- Cc1c(C(=O)N2CCOCC2)c(S(=O)(=O)Nc2ccccc2F)c(C)n1C
 : 1.4, 1.2
- Cc1cc(C)n(CCN(C)c2nc3nonc3nc2N2CCCCC2)n1
 : 0.6, 0.01
- O=C(Nc1cc2c(cc1Br)OCCO2)c1cccnc1
 : 0.75, -1.1
- N#CCCn1c(C(C#N)(CCC#N)CCC#N)nc2ccccc21
 : 1.2, -0.02

# Other results
# Under each structure – KCNQ2 pot, KCNQ2 pot baseline
- CSC1=C(C#N)C(c2ccc3c(c2)OCO3)C2=C(CCCC2=O)N1 (stereo not given)
 : 0.94, -0.44
- CCCN1C(=O)C(NS(=O)(=O)c2ccc(N)cc2)(C(F)(F)F)C(C(=O)OC)=C1C (stereo not given)
 : 0.07, 0.1
- O=C(CSCc1cc(=O)n2nc(C3CC3)sc2n1)Nc1ccc(F)cc1
 : 0.65, 0.42
- COc1ccc(/C=N/NC(=S)Nc2cc(C(F)(F)F)ccc2Cl)cc1
 : 1.9, -3.2
- Cc1ccccc1NC(=O)C1CCCN(S(=O)(=O)c2ccc3c(c2)C(C)(C)C(=O)N3C)C1 (stereo not given)
 : 0.52, -1
- O=C(C[n+]1ccsc1)c1ccccc1
 : 1.1, -0.05
- CC(C(=O)NCCS(=O)(=O)c1ccc(Cl)cc1)S(=O)(=O)c1ccc(Cl)cc1 (stereo not given)
 : 0.51, 0.64
- CCC(C)[C@H]1CN=C(N)N1CC1CCCCC1 (stereo not given in full)
 : 0.65, -0.92
- CC(=O)c1ccc(-c2nc3c4ccccc4ccn3c2C(C)=O)o1
 : 1.6, -0.62
- CCOc1ccc(C(C)NC(=O)CCC(=O)O)cc1 (stereo not given)
 : 0.73, 0.21
- COc1cccc2cc(C(=O)N3CCN(c4ccccc4F)CC3)c(=O)oc12
 : 0.75, 0.02
- CCOc1ccccc1NC(=O)C1CCN(S(C)(=O)=O)CC1
 : 1.1, 0.78
- CC(C)CCOc1ccc(C(=O)NCC(c2cccs2)N2CCOCC2)cc1 (stereo not given)
 : 2.2, 0.92
- COc1ccc(OC)c(S(=O)(=O)NC2CC2)c1
 : 0.01, -1.3
- O=C(O)c1ccc(-n2nnc3ccccc32)c([N+](=O)[O-])c1
 : 0.78, 1.5
- COc1cccc(CNC(=O)c2cccc(Br)c2)c1
 : 0.92, -0.4
- CC(NC(=O)C(NC(=O)C(Cc1c[nH]c2ccccc12)NC(=O)OC(C)(C)C)C(C)C)C(N)=O (stereo not given)
 : 0.04, -0.67
- COc1ccccc1C(=O)NCC(=O)N=Nc1c(O)n(C(C)C)c2ccccc12
 : 2.7, 1.4
- COc1ccc(-c2ccc(NCCN3CCOCC3)nn2)cc1OC
 : 0.59, -1
- COc1cccc(NC(=O)CCN2C(=O)c3ccc([N+](=O)[O-])cc3C2=O)c1
 : 0.72, 0.64
- CC(=O)NCCNC(=O)c1cc(-c2cccc3ccccc23)nc2ccccc12
 : 2.2, 0.05
- CNC(=O)Cn1nc(-c2ccc(C)cc2)c2ccccc2c1=O
 : 1.9, -0.09
- Cc1noc(C)c1CSCC(=O)Nc1cc(S(C)(=O)=O)ccc1Cl
 : 0.02, 0.19
- COc1ccc2c(c1)c(CCNNC(=O)C(C)(C)C)c(C)n2C(=O)c1ccc(Cl)cc1
 : 0.02, -1.1
- Cc1cccc(NS(=O)(=O)c2cccc(C(=O)NCC(C)(C)N3CCOCC3)c2)c1
 : 0.06, -0.47
- CCC(C)(NC=O)C(=O)Nc1c(C)cccc1C (stereo not given)
 : 0.14, -0.01
- Cc1ccc(C)c(CN2CCC(CNC(=O)Nc3ccc(C)c(C)c3)CC2)c1
 : 7.6*, 0.13*
- CCCCNC(=O)c1cccnc1SCC(=O)Nc1ccccc1OC
 : 0.74, -0.57
- O=C(CCN1C(=O)C2CCCCC2C1=O)Nc1ccc(F)c(F)c1F (stereo not given)
 : 0.02, -1.4
- O=C(N=Nc1c(O)[nH]c2ccccc12)c1cc(-c2ccc(F)cc2)n[nH]1
 : 0.03, 0.63
- COc1ccc(C)cc1NC(=O)Nc1ccc(Br)cn1
 : 0.52, 0.21
- CCn1c(CNC(=O)c2ccco2)nnc1SCC(=O)c1ccc(OC)cc1
 : 1.1, 0.1
- Cc1nc2nc(-c3ccccc3)nn2c(C)c1C
 : 1.6, -0.62
- CC1CCC/C(=C\Nc2ccc(C(=O)O)cc2)C1=O (stereo not given)
 : 0.62, -0.29
- O=C(CCc1ccccc1)N/N=C\c1cc2c(cc1Br)OCO2
 : 1.5, -0.06
- Cc1ccc2occ(CN3CCN(c4ccccc4)CC3)c(=O)c2c1
 : 0.59, -1.1
- CCSC1=C(C#N)C(c2cccc(Br)c2)CC(=O)N1 (stereo not given)
 : 0.37, 0.14
- CN(C)CCNc1cc(-c2ccncc2)nc2ccccc12
 : 1.8, -0.62
- COc1ccc(S(=O)(=O)N2CCCC(C(=O)NCC3CCCO3)C2)cc1Cl (stereo not given)
 : 0.04, -0.75
- Cc1ccc2nc(N(CCCN(C)C)C(=O)CS(=O)(=O)c3ccccc3)sc2c1
 : 0.02, -0.01
- CC(C)N(C(=O)Cn1cc(S(=O)(=O)CC(=O)NC2CCCCC2)c2ccccc21)C(C)C
 : 1.5, 0.07
- C=CCn1c(=O)/c(=C2/SC(C)=C(C)N2CC)s/c1=C1/C(=O)N(CC)C(=S)N1c1ccccc1
 : 0.99, -1.4
- CNc1cc(N2CCCCCC2)ccc1[N+](=O)[O-]
 : 0.22, 0.08
- COc1cccc(C(=O)NNC(=O)C(=O)Nc2cccc3ccccc23)c1
 : 13*, 1.9*
- COC(=O)C1CCN(C(=O)c2ccc3nc(-c4cccc(OC)c4)oc3c2)CC1
 : 0.09, -1.3
- COc1ccccc1N1CCN(c2cc(N3CCCC3)nc(C)n2)CC1
 : 0.26, 1.4
- O=C(c1cccc(S(=O)(=O)NCc2ccccc2)c1)N1CCCC(C(F)(F)F)C1 (stereo not given)
 : 0.59, -0.53
- Cc1c(C)n2c(SCC(=O)N3CC(C)OC(C)C3)nnc2[nH]c1=O (stereo not given)
 : 1.2, 0.62
- CCc1c(C(C)O)oc2ccc3c(C)cc(=O)oc3c12 (stereo not given)
 : 0.6, 1.5
- O=CN1c2ccccc2CSc2ccccc21
 : 0.89, -0.92

# Following part.
# Under each structure – KCNQ2 pot, KCNQ2 pot baseline
- CC1=C(C(=O)N2CCOCC2)C(c2ccc(C)cc2)NC(=S)N1 (stereo not given)
 : 0.52, -0.28
- Cc1cc(-c2n[nH]c(=S)n2/N=C/C=C/c2ccccc2)n[nH]1
 : 0.01, -0.74
- COc1cc(OC)c(OC)cc1/C=C1\SC(N2CCCCC2)=NC1=O
 : 0.4, -0.03
- CCOC(=O)c1cc(-c2ccc(N3CCOCC3)cc2)nn1-c1ccccc1C(=O)O
 : 0.03, 0.02
- C/C(=N\NC(=O)CN1CCCCC1)c1ccccc1O
 : 1.1, 0.19
- Cc1ccnc(NC(=O)C2CCN(S(=O)(=O)c3cccc4nonc34)CC2)c1
 : 0.94, -1.5
- CCOC(=O)c1c(C)c(C(=O)Nc2cc(F)ccc2F)c(C)n1C
 : 1.2, 1.2
- CCOC(=O)c1c(C)[nH]c(N=Nc2ccc(C)cc2)c1C
 : 0.02, 0.36
- O=C(c1ccccc1)c1ccc(OCC(O)CN2CCCC2)cc1 (stereo not given)
 : 0.6, -1.4
- O=C(COc1ccc2ccccc2c1)NCC1CCCO1 (stereo not given)
 : 1.1, -0.48
- O=C(CCC(=O)N1CCc2ccccc2C1)N1CCN(S(=O)(=O)c2ccccc2)CC1
 : 0.01, -2.9
- O=c1c2ccccc2n(CC(O)CN2CCOCC2)c2ccccc12 (stereo not given)
 : 0.15, -1.3
- COc1cc(NC(=O)c2ccccc2)cc(OC)c1
 : 17*, -0.51*
- Cc1cc(C)c(S(=O)(=O)Cc2ccccc2)c(=O)[nH]1
 : 0.64, -0.38
- Cc1ccc(S(=O)(=O)NCCCCCC(=O)Nc2ccccc2C)cc1
 : 0.66, -1.6
- Cc1cc(N)n2nc(C)c(-c3ccccc3)c2n1
 : 1.1, -0.54
- COc1ccccc1Nc1ncnc2sccc12
 : 0.33, 2.2
- O=[N+]([O-])c1ccc(N=Nc2c(Cl)cc(O)cc2Cl)cc1
 : 4.3, -1.3
- CCCCN(C(=O)C1CC(=O)N(Cc2ccc(C)cc2)C1)c1c(N)n(CC(C)C)c(=O)[nH]c1=O (stereo not given)
 : 1.8, -0.39
- COCCN(C(=O)CSc1nc2ccccc2c(=O)n1CC(C)C)c1c(N)n(Cc2ccccc2)c(=O)[nH]c1=O
 : 0.48, -0.92
- C=CCn1c(CCC(O)CCCCC)n[nH]c1=S (stereo not given)
 : 0.77, -0.04
- O=C(Nc1ccccc1C(=O)O)C1=NN=CC1
 : 0.64, 0.55
- CN(C)c1cccc(C(=O)N2CCC(n3nccc3NC(=O)C3CCOC3)CC2)c1 (stereo not given)
 : 0.91, 0.04
- Cc1cccc(C)c1OCc1nnc(SCC(=O)Nc2ccc(N3CCOCC3)cc2)o1
 : 0.19, 0.1
- COC(=O)c1ccc(/C(O)=C(\C#N)c2nc3ccccc3s2)cc1
 : 1.1, -1.4
- CSc1sc(C(=O)NNC(C)=O)c2c1C1(CCC2)SCCS1
 : 0.25, 3.5
- COc1ccc(C(=O)COC(=O)c2ccn(C)n2)cc1
 : 0.03, 0.52

# Compound activity deposited in PubChem by Johns Hopkins Ion Channel Center.
